MbtI inh – MbtI salicylate synthase inhibitors, primary screen, biochemical, fluorescence intensity | purified MbtI enzyme, fluorescence intensity read-out | P9WFX0 | inhibition, %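 (about 17 µg/mL by stock and volumes)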 | AID 493033, 2011 | 100,000 tested, 0.89% active;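 active = above 50% in both replicates, above 80% if mildly self-fluorescent; inactive = the rest, strongly fluorescent compounds included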;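 note: 0% = mean of negative and 100% = mean of positive controls; one replicate is shown; some compounds called inactive have numbers as strong as hits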
Target sequence (P9WFX0 whole entry, looked up): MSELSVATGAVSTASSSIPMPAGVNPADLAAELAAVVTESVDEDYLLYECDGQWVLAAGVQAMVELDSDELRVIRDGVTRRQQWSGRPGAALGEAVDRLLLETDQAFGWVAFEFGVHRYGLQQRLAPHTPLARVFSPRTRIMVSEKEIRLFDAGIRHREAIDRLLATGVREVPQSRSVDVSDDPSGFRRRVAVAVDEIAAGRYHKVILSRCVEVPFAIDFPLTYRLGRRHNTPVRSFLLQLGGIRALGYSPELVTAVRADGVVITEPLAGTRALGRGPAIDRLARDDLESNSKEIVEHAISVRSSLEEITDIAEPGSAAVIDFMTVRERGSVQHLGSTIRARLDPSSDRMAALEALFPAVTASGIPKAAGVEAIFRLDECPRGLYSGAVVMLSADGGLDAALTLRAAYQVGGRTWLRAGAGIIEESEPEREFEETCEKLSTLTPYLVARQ
PV pol inh – poliovirus RdRp elongation inhibitors, primary screen, biochemical, fluorescence polarization, total intensity; 150,000 tested, 0.66% active; AID 588519, 2011; % elongation, % (compound at 16.7 µg/mL); Genome polyprotein (Poliovirus type 1 (strain Mahoney)), P03300; poliovirus polymerase elongation; hits give low values; in the data active = % elongation below about 90%; note: some results filed as inactive read as strong as hits
Target sequence (P03300 1749-2209 limits assumed): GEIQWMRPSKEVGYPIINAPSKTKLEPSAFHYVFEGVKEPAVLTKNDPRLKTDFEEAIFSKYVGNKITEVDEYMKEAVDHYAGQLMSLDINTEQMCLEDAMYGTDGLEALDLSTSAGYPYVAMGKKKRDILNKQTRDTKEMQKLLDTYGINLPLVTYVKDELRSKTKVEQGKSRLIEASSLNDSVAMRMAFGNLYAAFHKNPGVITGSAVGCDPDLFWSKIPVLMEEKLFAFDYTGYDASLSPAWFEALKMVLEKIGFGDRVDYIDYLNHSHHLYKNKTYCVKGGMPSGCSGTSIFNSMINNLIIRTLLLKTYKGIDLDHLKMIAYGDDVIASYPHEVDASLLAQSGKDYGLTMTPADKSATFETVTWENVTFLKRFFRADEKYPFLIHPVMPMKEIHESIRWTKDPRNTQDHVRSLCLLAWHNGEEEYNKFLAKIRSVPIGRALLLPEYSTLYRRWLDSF
Mtb MenB inh – M. tuberculosis MenB inhibitors, primary screen, biochemical, absorbance | inhibition, %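 (about 12 µg/mL by stock and volumes)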 | 1,4-dihydroxy-2-naphthoyl-CoA synthase (Mycobacterium tuberculosis (strain ATCC 25618 / … | MenB enzyme assay, absorbance read-out; some hits fall short of the stated cut | 100,000 tested, 0.43% active;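 active = mean of two replicates above 30%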;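 note: 0% = no compound and 100% = wells with inactive enzyme; the first replicate is given; strong numbers were not always called active; inactives centre near -10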
PV pol inh intensity – also measured in PV pol inh; calls as there; % elongation; measured here: total intensity read-out; formula for this scale not given here;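 total fluorescence in place of polarization; lower means less elongation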
Numbers without * were called inactive; . = no result given.

SMILES | MbtI inh | PV pol inh | PV pol inh intensity | Mtb MenB inh
Cc1ccc(S(=O)(=O)NC2CC2)cc1C(N)=O | -1 | 101 | 104 | 0
C=CCn1cnc2scc(-c3ccccc3)c2c1=O | 3 | 101 | 101 | 13
CCS(=O)(=O)c1ccc2oc(SCc3ccc(F)cc3)nc2c1 | -1 | 104 | 109 | -14
CC(C)C(=O)NNc1cc(C(F)(F)F)ccn1 | -3 | 101 | 97 | -23
O=C(OC(C(=O)NCc1ccc2c(c1)OCO2)c1ccncc1)c1ccc(Cl)nc1 (configuration not stated) | -5 | 103 | 102 | -21
O=C(CC1SC(=NCc2ccccc2)NC1=O)NCc1ccccc1 (configuration not stated) | -8 | 102 | 108 | -6
COc1ccc(-c2cc(C(=O)N(C)C)c3ccccc3n2)cc1 | 90 | 101 | 98 | .
CC1(C)CC(=O)CC(C)(C)N1OC(=O)c1ccccn1 | . | 98 | 106 | -7
O=C(NCC(c1ccco1)N1CCCCC1)c1ccccc1C(F)(F)F (configuration not stated) | -2 | 103 | 95 | -19
COc1ccc(/C=N/OCC(=O)Nc2ccc3c(c2)OCO3)c(OC)c1 | 12 | 108 | 107 | -7
Cc1ccc2c(c1)c1nc3n(c(=O)c1n2CC(=O)NCc1ccco1)CCS3 | 7 | 102 | 100 | 6
Cc1ccc(NCc2nnc(SCc3cc(C)ccc3C)o2)c(C)c1 | -1 | 101 | 102 | -49
COc1ccc(C2C(C(=O)Nc3cccc(C)n3)c3ccccc3C(=O)N2C)cc1 (configuration not stated) | -9 | 101 | 102 | -18
CN[C@@H](C)[C@@H](O)c1ccccc1 | -4 | 100 | 98 | -15
CCCc1nnc(NC(=O)C(CC)Sc2nnc3c(n2)[nH]c2ccccc23)s1 (configuration not stated) | -2 | 102 | 104 | 9
O=c1cnn(Cc2cccc(C(F)(F)F)c2)c2ccccc12 | 11 | 99 | 99 | -10
CCNC(=O)c1cccc(NC(=O)CCCc2nc3ccccc3c(=O)[nH]2)c1 | 9 | 103 | 102 | 10
O=c1cnnc(N2CCCCC2)[nH]1 | -21 | 103 | 101 | -4
Cc1ccc(Cl)c(C(=O)NC2=CC(=O)CC(C)(C)C2)c1 | . | 103 | 107 | -1
CN(Cc1ccco1)C(=O)c1noc2c1CSc1ccccc1-2 | 42 | 100 | 102 | 14
Cc1cc(=O)n2c3ccccc3nc2n1Cc1ccccc1 | 18 | 101 | 101 | -24
Cc1cc(C)c(-c2cc(C(F)(F)F)nc(-c3ccccc3)n2)c(=O)[nH]1 | 4 | 102 | 101 | -9
CCN(c1ccccc1)c1nc2nonc2nc1N(C)C | -6 | 101 | 102 | -18
S=C(Nc1ccccc1)Nc1nc2ccccc2n1Cc1ccc(Cl)cc1 | -6 | 105 | 108 | -74
O=C1c2ccccc2NC(c2ccccc2)N1CCCN1CCOCC1 (configuration not stated) | -25 | 110 | 112 | 3

New compounds follow.
SMILES | MbtI inh | PV pol inh | PV pol inh intensity | Mtb MenB inh
Cc1ccc(C2C(C(=O)c3ccco3)=C(O)C(=O)N2c2ccccn2)cc1 (configuration not stated) | 6 | 104 | 104 | -7
O=C(Nc1ccccc1)N1CCN(c2nnc(-c3ccccc3)c3ccccc23)CC1 | 8 | 102 | 98 | -7
Cc1cc(=O)n2c3c(cc(S(=O)(=O)N(C)c4ccccc4)cc13)CCC2 | -4 | 101 | 101 | 6
Cc1cc2nc(N3CCc4ccccc4C3)c3ccccc3n2n1 | 96 | 107 | 107 | -7
CN(Cc1ccccc1)C(=O)C1CCCN(Cc2ccc(Cl)cc2)C1 (configuration not stated) | -3 | 102 | 93 | -18
CCCCS(=O)(=O)NC1=NCN(Cc2ccco2)CN1 | -2 | 104 | 105 | -21
C[n+]1ccc(/C=C/c2cccs2)cc1 | . | 106 | 108 | -54
CC(=O)Nc1ccc(NC(=O)C(C)C)nc1 | 1 | 104 | 106 | 1
COc1ccc(C2=NN(C(=O)c3ccccc3O)C(O)(C(F)(F)F)C2)cc1 (configuration not stated) | 0 | 120 | 122 | -12
Cc1[nH]nc2c1C(=O)CC(C)(C)C2 | -10 | 101 | 101 | -52
Cc1ccccc1S(=O)(=O)Cc1ccc(C(=O)NCCN2CCN(c3cccc(Cl)c3)CC2)o1 | 7 | 100 | 101 | -18
O=C(Cc1nc2scc(-c3ccccc3)c2c(=O)[nH]1)N1CCOCC1 | -12 | 103 | 107 | -37
CCN1CN=C(SCc2c(C)c(C)c(C)c(C)c2C)NC1 | -1 | 98 | 96 | -3
O=S1(=O)C=CC(Nc2ncnc3c2oc2ccccc23)C1 (configuration not stated) | -4 | 107 | 109 | -7
O=C(c1ncoc1-c1cccs1)N1CCN(C(c2ccccc2)c2ccccc2)CC1 | 16 | 101 | 101 | -57
CN/N=C/c1cn(-c2ccccc2)nc1-c1cccs1 | -6 | 103 | 102 | -39
Cc1cc(C)n(C(CC(=O)N2CCc3ccccc3C2)C(=O)O)n1 (configuration not stated) | -8 | 103 | 106 | .
CC(OC(=O)C1=NN(c2ccccc2)C(=O)CC1)C(=O)Nc1ccc(S(N)(=O)=O)cc1 (configuration not stated) | -1 | 99 | 97 | -36
Cc1ccc(CCC(=O)C(C#N)c2nc3ccccc3s2)o1 (configuration not stated) | 96 | 100 | 108 | -1
COc1cccc(-c2noc(CCC(=O)N3CCCC3)n2)c1 | -2 | 98 | 102 | 6
CCOC(=O)c1cc(NC(=O)c2ccccc2)c(=O)n2c1oc1ccccc12 | 4 | 99 | 104 | -1
O=C(NC1CCCC1)c1cncc(NS(=O)(=O)c2ccccc2)c1 | -21 | 101 | 102 | -4
O=C1N=C(N2CCCC2)S/C1=C\c1ccccc1O | 15 | 101 | 105 | -13
CN(C)CCCNc1oc(-c2ccc(F)cc2)nc1C#N | 105 | 103 | 105 | -16
CCOc1ccc(-n2c(=O)c3cc4c(=O)n(-c5ccc(OCC)cc5)c(=O)c4cc3c2=O)cc1 | -11 | 101 | 108 | 3

Further compounds follow:
SMILES | MbtI inh | PV pol inh | PV pol inh intensity | Mtb MenB inh
Cc1c(C(=O)NC2CCCCC2)c(C)n2cn[nH]c(=O)c12 | -4 | 104 | 106 | -14
CCOc1ccc(CN(CCc2ccc3c(c2)OCO3)Cc2ccccc2)cc1 | -3 | 105 | 102 | -24
CCOc1ccc(CCNC(=O)C(C)N2C(=O)CC(C)(C)Sc3ccccc32)cc1 (configuration not stated) | -16 | 104 | 107 | -10
COc1cccc(NC(=O)NCc2noc3ccccc23)c1 | 16 | 100 | 101 | -2
Cc1ccc(C=Nc2ccc(N=Cc3ccc(C)s3)cc2)s1 | . | 109 | 114 | -1
Cc1ccc(S(=O)(=O)N(c2nc(NC(C)C)nc(NC(C)C)n2)n2cnnc2)cc1 | -11 | 103 | 107 | -13
CC(C)N(Cc1ccccc1)C(=O)[C@H]1[C@@H]2C[C@@H]3[C@H]1C(=O)O[C@@H]3C2 | 0 | 98 | 102 | -9
COc1ccc2c(c1)-c1c(ssc1=S)C(C)(C)N2 | . | 92 | 92 | -62
N#CCCn1nc(-c2ccc(F)cc2)ccc1=O | 6 | 106 | 112 | 8
Cc1nnc(-c2cccc(S(=O)(=O)N3CCN(C(c4ccccc4)c4ccccc4)CC3)c2)o1 | -5 | 101 | 102 | -8
CCn1c(=O)cc(OCC(=O)N2CCC3(CC2)OCCO3)c2ccccc21 | 5 | 100 | 103 | -9
O=C(NCCCn1ccnc1)c1cnn2c1NC(c1ccccc1)CC2C(F)(F)F (configuration not stated) | -4 | 101 | 103 | 2
Cc1cc(C)nc(SCC(=O)OCc2cc(=O)n3cc(Br)ccc3n2)n1 | -3 | 103 | 100 | -1
O=C(NCc1ccccc1)c1ccc2ccccc2n1 | 7 | 100 | 99 | .
CC(C)(C)n1cnc2cc(NCc3cccs3)ccc21 | 45 | 102 | 104 | -11
O=C1CCCN1c1ccc(S(=O)(=O)NC2CC2)c(Cl)c1 | -7 | 102 | 103 | -59
N#Cc1cccc(NC(=S)Nc2ccccc2)c1 | . | 103 | 111 | -3
CCn1c(Cc2ccccc2)nnc1SCc1ccc(C#N)cc1 | -11 | 102 | 102 | -7
C=CCN1C(=O)C(Cc2ccc(O)cc2)NC1=S (configuration not stated) | 0 | 101 | 104 | -20
O=C(CCCn1c2ccccc2c2cn[nH]c(=O)c21)NCC1CCCO1 (configuration not stated) | 5 | 99 | 104 | 1
O=C(Oc1ccccc1-c1nnco1)c1ccc(Cl)cc1 | -28 | 104 | 105 | -16
CCCN1CCN(C(=O)CC(=O)Nc2ccc3nc4n(c(=O)c3c2)CCCCC4)CC1 | 6 | 100 | 104 | -4
CC(C)Oc1cccc(C(=O)n2cnnc2N)c1 | 81 | 101 | 102 | 5
COc1cccc(C2=NS(=O)(=O)N(C)C(C(=O)N3CCCC3)=C2)c1 | -2 | 103 | 102 | -9
CC(=O)Nc1sc(C)c(C)c1CN1CCCC(C)C1 (configuration not stated) | -2 | 104 | 94 | -46

Next section (four carried over from the part before).
SMILES | MbtI inh | PV pol inh | PV pol inh intensity | Mtb MenB inh
CCCN1CCN(C(=O)CC(=O)Nc2ccc3nc4n(c(=O)c3c2)CCCCC4)CC1 | 6 | 100 | 104 | -4
CC(C)Oc1cccc(C(=O)n2cnnc2N)c1 | 81 | 101 | 102 | 5
COc1cccc(C2=NS(=O)(=O)N(C)C(C(=O)N3CCCC3)=C2)c1 | -2 | 103 | 102 | -9
CC(=O)Nc1sc(C)c(C)c1CN1CCCC(C)C1 (configuration not stated) | -2 | 104 | 94 | -46
CCOC(=O)c1c(C)[nH]c(C)c1C(=O)COC(=O)CSc1nc2ccccc2o1 | -9 | 108 | 108 | -20
Cc1[nH]n(-c2ccccc2)c(=O)c1/C=C1\C=NN=C1c1ccccc1 | . | 100 | 101 | -26
COCCNC(=O)c1ccccc1NS(=O)(=O)c1ccc(NC(C)=O)cc1 | -12 | 102 | 103 | -11
N#CCCn1cc(C(=O)Nc2ccc(C(=O)O)cc2)c(-c2cccc(Br)c2)n1 | 5 | 103 | 103 | -6
Cc1cc(NC(=O)CCC(=O)N(Cc2ccccc2)C2(C(=O)NC3CCCCC3)CCCC2)no1 | -3 | 103 | 103 | -4
Cc1ccc(S(=O)(=O)Nc2ccc3c(c2)nc2n3CCN(Cc3ccccc3)C2)cc1 | -2 | 100 | 99 | 12
COc1ccc(CCNc2nc(C)cc(C)n2)cc1OC | -1 | 99 | 100 | 25
Cc1[nH]c2ccccc2c1Cc1nnc(SCc2ccccc2)o1 | -8 | 99 | 101 | 5
CCCCNC(=O)c1ccc2c(c1)ncn2C1CCCC1 | -14 | 102 | 101 | -22
C=C(C)C(=O)Oc1cccc(N2C(=O)CCC2=O)c1 | -9 | 103 | 109 | .
COC(=O)N1CCN(c2ccc(C)cc2)C(C)C1 (configuration not stated) | -19 | 100 | 104 | 7
O=C(O)Cn1c(CN2CCCCC2)nc2ccccc21 | -2 | 104 | 99 | 2
O=C(Nc1cc(-c2cccc(F)c2)no1)c1ccc2c(Cl)c3c(nc2c1)CCCC3 | -4 | 100 | 104 | 3
COc1cc2c(cc1OC)CN(C(=O)c1ccc3c(c1)CCC3)CC2 | -8 | 106 | 106 | -4
Cn1ccnc1SCC(=O)NC1CCCCC1 | -9 | 101 | 100 | .
CC(C)OC(=O)/C=C/c1cn(-c2ccccc2)nc1-c1cccs1 | -4 | 100 | 103 | .
O=C1/C(=C/c2ccncc2)COc2ccccc21 | 3 | 100 | 101 | -4
Cc1cccc(O)c1O | 86* | 102 | 104 | -14
Cc1ccc(S(=O)(=O)N2CCCC2C(=O)Nn2cnnc2)cc1 (configuration not stated) | -3 | 104 | 104 | -5
CCCN(CCC)S(=O)(=O)c1cccc(S(C)(=O)=O)c1 | -12 | 101 | 105 | -17
Cn1/c(=N/N=C2\CCCCC2=O)sc2ccccc21 | 2 | 126 | 134 | -42
CCn1ccc(C(C)C)c1-c1ccccc1 | . | 103 | 106 | -20
O=C(OCC(=O)N1CCc2ccccc21)c1sc2ccccc2c1Cl | -5 | 101 | 106 | .
O=C(CN1c2ccccc2S(=O)(=O)c2ccccc21)NC1CCCCCC1 | -10 | 104 | 103 | -13
CS(=O)(=O)c1ncc(Cl)c(C(=O)N2CCN(C(c3ccccc3)c3ccccc3)CC2)n1 | 26 | 103 | 102 | 7

One compound at a time, as listed above.
O=C(NC1CCCC1)c1cncc(NS(=O)(=O)c2ccccc2)c1 is listed with MbtI inh: -21; PV pol inh: 101; PV pol inh intensity: 102; Mtb MenB inh: -4
Cc1cc(=O)n2c3ccccc3nc2n1Cc1ccccc1 is listed with MbtI inh: 18; PV pol inh: 101; PV pol inh intensity: 101; Mtb MenB inh: -24

Other results:
SMILES | MbtI inh | PV pol inh | PV pol inh intensity | Mtb MenB inh
CCC(=O)Nc1ccc(C(=O)n2nnc3ccccc32)cc1 | -1 | . | . | -17
c1nncn1N=C1CCCCCC1 | 2 | 100 | 105 | .
Cc1ccc2c(c1)sc(=NC(=O)/C=C/c1ccc(Br)o1)n2C | -6 | 103 | 109 | -23
CC1CCCC(=O)C1 (configuration not stated) | 3 | 97 | 98 | -6
Cc1cc(C(=O)CSc2nnc(-c3c[nH]c4ccccc34)o2)c(C)n1C1CC1 | 15 | 99 | 106 | -12
O=C(c1ccccc1NS(=O)(=O)c1cccc2nsnc12)N1CCOCC1 | 5 | 100 | 103 | 22
N#Cc1ccc(CSc2nc(-c3cccs3)c(-c3cccs3)[nH]2)cc1 | 0 | . | . | -29
